miR-21 reporter = miR-21 reporter, rising signal. HeLa miR-21 FLuc reporter, luciferase, 48 h. Potency, µM (highest dose often 38.3 µM), for inactives: top-dose reporter change, positive = more light. 340,000 tested, under 10 active. AID 2288; active = well fitted rising curve with a large enough effect; inconclusive = small, poorly fitted or top-dose-only effect; inactive = no such curve, though single readings can be large or run the other way;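 also: % of control where 0% means no effect; miR-21 action dims this reporter so a rising signal means less miR-21 action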
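Luminescence from a firefly luciferase reporter carrying a miR-21 binding site downstream, stably expressed under a CMV promoter in HeLa cells that make miR-21 endogenously, reports miRNA modulation after 48 h compound exposure up to approximately 40uM final.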
GLA inh pH 4.5 = inhibitors of human alpha-galactosidase A at pH 4.5. P06280. purified enzyme, 4-MU-alpha-Gal fluorescence, pH 4.5. activity change, negative = inhibition, % at 105 µM. 230,000 tested, under 10 active; inconclusive = small, poorly fitted or top-dose-only inhibition, or a rising curve; inactive = flat fitted curve, though single readings scatter; no compound was filed as active;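 also: 0% = full activity with enzyme and -100% = basal without enzyme; dose as in the result columns while the protocol names 77 µM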
Rango dissoc inh = inhibition of RanGTP-driven Rango-importin beta dissociation | Biochemical FRET Rango-importin beta, RanGTP-induced dissociation | O95149+P62826 | Potency, µM (titrated, usually from 46.1 µM), inactives show top-dose activity change, negative = inhibition | 340,000 compounds, 0.071% hits; active means falling FRET ratio curve, often poorly fitted, with flat reads before Ran was added; inconclusive means other falling curves, or compound fluorescence or quenching; inactive means flat or rising ratio curve;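 also: potency is read from the fitted curve at half-maximal effect; % of control where 0% means no effect; nearly all actives have a fitted effect of over 45% in size; -100% = wells without RanGTP and RCC1; the record marks most hits as doubtful in a second field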
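Rango (0.1 uM)–importin beta (0.25 uM) complex; RanGTP-RCC1 trigger; 45 min RT; CFP/YFP FRET read.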
Rango complex inh = inhibitors of Rango-importin beta complex formation; Rango CFP/YFP FRET sensor + importin beta, 45 min; 340,000 compounds, 0.031% hits; AID 540263; Potency, µM (top dose mostly 92.2 µM), for the others: top-dose inhibition of complex formation; active = rising FRET ratio curve, often small or poorly fitted; inconclusive = mostly compound fluorescence or quenching in the first reads; inactive = flat curves in all reads;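 also: potency is read from the fitted curve at half-maximal effect; 0% = DMSO wells and 100% = buffer wells lacking importin beta; nearly all actives have a fitted effect of over 15% in size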
Target sequence (Q14974 whole entry, looked up): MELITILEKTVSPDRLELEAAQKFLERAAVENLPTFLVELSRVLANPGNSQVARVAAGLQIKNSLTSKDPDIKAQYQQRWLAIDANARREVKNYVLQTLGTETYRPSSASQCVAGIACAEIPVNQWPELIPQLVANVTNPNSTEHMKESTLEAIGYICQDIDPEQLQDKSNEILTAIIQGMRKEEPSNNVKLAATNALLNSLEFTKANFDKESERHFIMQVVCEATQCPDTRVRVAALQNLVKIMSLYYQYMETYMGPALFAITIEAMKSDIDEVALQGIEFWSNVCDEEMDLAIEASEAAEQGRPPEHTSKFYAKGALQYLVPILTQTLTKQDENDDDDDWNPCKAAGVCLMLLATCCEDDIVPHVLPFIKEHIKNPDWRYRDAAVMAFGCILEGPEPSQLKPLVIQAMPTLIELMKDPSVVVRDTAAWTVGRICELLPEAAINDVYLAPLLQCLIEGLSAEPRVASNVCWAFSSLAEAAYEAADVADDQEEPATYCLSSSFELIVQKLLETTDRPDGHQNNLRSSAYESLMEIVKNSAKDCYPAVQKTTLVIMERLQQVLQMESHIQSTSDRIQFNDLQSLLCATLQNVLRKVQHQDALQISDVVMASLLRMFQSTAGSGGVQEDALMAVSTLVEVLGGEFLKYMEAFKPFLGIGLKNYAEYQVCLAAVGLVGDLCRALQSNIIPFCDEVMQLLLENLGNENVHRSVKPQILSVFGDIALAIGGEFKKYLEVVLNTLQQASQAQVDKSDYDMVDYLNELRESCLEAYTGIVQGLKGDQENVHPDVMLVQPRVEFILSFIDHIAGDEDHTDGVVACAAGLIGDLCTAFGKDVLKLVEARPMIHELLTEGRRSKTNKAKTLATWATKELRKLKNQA
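FRET biosensor (snurportin 1 IBB flanked by EYFP and cerulean), 50 nM, with compound 5 min, then 0.125 microM importin beta in PBS, 1 mM DTT, 0.02% Tween-20, 0.1% BSA. CFP/YFP ratio read after 45 min at room temperature; pre-read flags interference.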
The depositor's hits bear a star; u = inconclusive; x = no result given. Some of the compounds tested. The share of hits here may be higher or lower than overall.

Below each SMILES – GLA inh pH 4.5, Rango complex inh, miR-21 reporter, Rango dissoc inh
> O=C(C1CCN(S(=O)(=O)c2cnc[nH]2)CC1)N1CCn2c1nc1ccccc12
→ -20, -3.7%, -9%, 9%
> O=C(CN1C(=O)CSC1=O)NCc1ccccc1
→ 2, -0.2%, -7%, -4%
> CCOc1cc(N2CCOCC2)c(OCC)cc1NS(=O)(=O)c1cc(NC(C)=O)ccc1OC
→ x, 1.1%, -2%, -10%
> CCOC(=O)c1cnn(-c2ncnc3sc(C)c(C)c23)c1N
→ 13, 0.5%, -7%, 1%
> CCOC(=O)c1cnc(-n2cc(C)cn2)nc1NCc1ccc2c(c1)OCO2
→ 7, -0.9%, -4%, -5%
> C[C@@H](C(=O)N1CCN(C(=O)OC(C)(C)C)CC1)n1cc(CCCN=C(NC(=O)OC(C)(C)C)NC(=O)OC(C)(C)C)nn1
→ -9, 5.9%, 0%, -3%
> O=C(Nc1ccc(Cc2ccncc2)cc1)c1ccco1
→ -3, -2.1%, -46%, -4%
> COc1cccc(NC(=O)C2CC2(c2cccc(OC)c2)c2cccc(OC)c2)c1 (stereo unspecified)
→ 3, -3.3%, -5%, 9%
> S=C(NCc1ccncc1)NC1CCCCC1
→ 9, 0.2%, -5%, -5%
> c1ccc(N2CCN(c3cnc4ccccc4n3)CC2)cc1
→ -15, -2.2%, -67%, 9%
> COCCN(C(=O)COC(=O)C12CC3CC(CC(C3)C1)C2)c1c(N)n(Cc2ccccc2)c(=O)[nH]c1=O
→ x, -0.9%, x, -15%
> COc1ccc(CN2C(=O)c3ccccc3C2=O)cc1C(=O)OC(C)C(=O)NC(N)=O (stereo unspecified)
→ 1, -0.4%, 0%, 0%
> O=C(CN1C(=O)C2CC=CCC2C1=O)NC1CCCCC1 (stereo unspecified)
→ -6, 5.1%, -2%, -3%
> Cc1cccc(NC(=O)CSc2nc3c(oc4ccccc43)c(=O)n2-c2ccccc2)c1
→ 1, 0.5%, -8%, 0%
> CN1CCN(CCOc2ccc(-c3ccccc3)cc2)CC1
→ x, -0.1%, -33%, -23%
> O=C(CCn1c(=S)oc2ccccc21)Nc1ccc(F)cc1
→ 4, -3.8%, 0%, -14%
> COC(=O)C1=NNC(C(=O)c2ccco2)C1c1ccc(OC)cc1 (stereo unspecified)
→ 3, -2.0%, 5%, 15%
> Cc1nn(CCOc2ccccc2)c(=O)n1-c1c(F)cccc1F
→ 4, 10%, -49%, u
> O=C(CSc1nnc(-c2cccs2)o1)OC1CCCCC1
→ 3, 4.7%, 1%, 11%
> CSc1ccc(CNC2CC2)cc1
→ -3, 1.4%, -4%, -14%

The last two records of the part above open the next one:
Below each SMILES – GLA inh pH 4.5, Rango complex inh, miR-21 reporter, Rango dissoc inh
> O=C(CSc1nnc(-c2cccs2)o1)OC1CCCCC1
→ 3, 4.7%, 1%, 11%
> CSc1ccc(CNC2CC2)cc1
→ -3, 1.4%, -4%, -14%
> CCn1c(N2CCC(Cc3ccccc3)CC2)nc2c1c(=O)[nH]c(=O)n2C
→ 4, -4.0%, 8%, 21%
> COCc1cc(=O)n2c(-c3ccc(C)cc3)n[nH]c2n1
→ 6, u, -30%, -5%
> COc1ccc(OC)c(NC(=O)Nc2ccc3c(c2)OCO3)c1
→ x, 0.8%, -24%, 8%
> Cc1ccc2c(c1)nnn2C1CCN(S(=O)(=O)c2ccc(C(=O)N(C)C)cc2)CC1
→ 2, -0.1%, -1%, -5%
> Cc1ccc(C)c(NC(=O)CN(C)C(=O)c2ccc(-n3cncn3)c([N+](=O)[O-])c2)c1
→ x, 2.1%, x, 11%
> O=C(O)c1sccc1SCc1ccc(Cl)cc1Cl
→ -9, 1.4%, -14%, -3%
> O=C(CN1CCSC1=O)N1CCN(S(=O)(=O)c2ccccc2)CC1
→ x, -0.3%, x, -12%
> Cc1ccc(S(=O)(=O)N2CCOC23CCN(C(=O)c2ccccc2Br)CC3)cc1
→ x, -1.8%, -3%, 15%
> COc1ccc(NC(=O)C2CCCN2C(=O)NCc2ccccc2)cc1OC (stereo unspecified)
→ -9, 0.4%, -2%, 13%
> O=C(Nc1ccc(Br)cn1)c1cccc2ccccc12
→ x, 5.5%, x, -4%
> CC1CCCCN1C(=O)Cn1cc(C=O)c2ccccc21 (stereo unspecified)
→ -7, -2.0%, -3%, -8%
> Cc1ccc(OC(=O)C(F)(F)F)c2c1NCCC2
→ -6, 2.5%, -4%, 0%
> C[C@H](CO)N1C[C@H](C)[C@@H](CN(C)C(=O)Nc2ccccc2)Oc2ccc(NC(=O)c3ccncc3)cc2C1=O
→ x, -0.6%, x, 30%
> CCOC(=O)CSc1nc2cc(C(F)(F)F)cnc2n1C
→ 0, 3.3%, 11%, 3%
> CN(Cc1cc(-c2ccccc2)on1)C(=O)c1cc(COc2c(F)cccc2F)on1
→ -3, -4.0%, -53%, 14%
> COc1cc(C(=O)NCCOc2ccccc2)c(Br)c(OC)c1OC
→ -4, -0.4%, -9%, 8%
> Cc1ccc(CNC(=O)[C@@H]2CCC(=O)N2Cc2ccco2)cc1
→ 6, 5.0%, 1%, -9%
> CC(C)(C)NC(=O)CN(Cc1cccs1)C(=O)CNS(=O)(=O)c1ccc(F)cc1
→ 3, -0.3%, -5%, -12%
> CC(C)(C)c1nc2ccc([N+](=O)[O-])cc2[nH]1
→ 9, -1.7%, -1%, 4%
> O=C(Nc1ccc(N2CCN(C(=O)C3CC3)CC2)cc1)c1cccs1
→ 0, 1.2%, -12%, -7%
> O=C(Nc1cc(C(F)(F)F)ccc1N1CCOCC1)C1=NN(c2ccccc2)C(=O)CC1
→ x, u, 7%, -2%
> CCn1c2ccccc2c2nnc(SCC(=O)c3c(N)n(C)c(=O)n(C)c3=O)nc21
→ 0, 3.1%, 2%, 9%
> COc1ccc(-c2nc(-c3ccccn3)nc(N3CCN(C)CC3)c2C#N)cc1
→ 5, -1.8%, 1%, -13%
> Cc1n[nH]c(C)c1CCc1nc2c3ccccc3nc(SCC(=O)Nc3ccccc3F)n2n1
→ 0, 0.8%, 8%, 0%
> CCOc1ccc(Cl)cc1S(=O)(=O)n1cnc2ccccc21
→ -2, -2.7%, 20%, 3%
> CC(=O)Nc1ccc(S(=O)(=O)CCC(=O)O)cc1
→ -2, -1.3%, -11%, -1%
> Cc1ccccc1C1c2[nH]c3ccccc3c2CCN1Cc1cccn1-c1ncccn1 (stereo unspecified)
→ -3, u, 17%, u
> CCOc1ccccc1NC(=O)c1ccccc1NS(C)(=O)=O
→ -5, -7.8%, 1%, 6%
> COc1ccc(Cc2nnc(NCCO)[nH]c2=O)cc1OC
→ x, u, -4%, -18%
> CC1C(=O)Nc2ccc(S(=O)(=O)N3CCc4ccccc4C3)cc2NC1=O (stereo unspecified)
→ x, 4.0%, 3%, -11%
> CC1CCN(C(=O)c2ccc(NS(=O)(=O)c3cccc4cccnc34)cc2)CC1
→ 4, 5.3%, -9%, -11%
> CCOc1ccccc1OCCCNCc1ccco1
→ -4, 0.0%, -8%, 14%
> CN(CCOc1ccc(Cl)cc1)C(=O)CN1C(=O)NC2(CCCC2)C1=O
→ x, -2.7%, x, 7%
> CCCCn1c(SCc2nc(N)nc(N3CCCCC3)n2)nc2c1c(=O)n(C)c(=O)n2C
→ 3, 4.3%, -6%, 11%
> N#Cc1ccc(C2N=C(c3ccccc3)NO2)cc1 (stereo unspecified)
→ x, -0.3%, -72%, -7%
> COc1ccc(N2C(=O)CCC(C(=O)N(C)CCc3ccccn3)C2c2ccc(OC)c(OC)c2)cc1 (stereo unspecified)
→ 2, -1.6%, 1%, -6%
> O=C(c1ccc(C(F)(F)F)cc1)N1CCCCC1
→ -3, 0.2%, -4%, 2%
> Cc1ccc(OCC(=O)NCCCNC(=O)c2ccccn2)cc1
→ x, 0.8%, 2%, -6%
> CC1CCN(C(=O)c2cc(-c3ccco3)on2)CC1
→ x, -1.6%, -79%, 17%
> CC(=O)CCC(=O)c1ccc2ccccc2c1
→ 2, -4.1%, -50%, 2%
> O=C(CCc1c[nH]c2ccccc12)NCCOc1ccccc1
→ x, 8.4%, -2%, -17%
> Cc1nc2ccc(Cl)cc2nc(C)/c1=N\O
→ 3, u, -46%, u
> CCOP(=O)(c1ccccc1)c1nc(-c2ccccc2C)oc1NCc1ccccc1 (stereo unspecified)
→ -5, -2.7%, -6%, -16%
> CCOC(=O)c1c(C)[nH]c(O)c1C=Nc1ccc(Cl)cc1
→ -3, 2.7%, -4%, u
> COc1ccc(OCCOC(=O)c2ccc(F)c(S(=O)(=O)N3CCOCC3)c2)cc1
→ x, 0.3%, x, -1%
> C=CCN=C(C)C1=C(O)CCC1=O
→ -6, 0.8%, -6%, 3%
> CCN1C(=O)CC(C(C)C)N(C2CCCC2)c2nc(Nc3ccc(C(=O)NC4CCN(C)CC4)cc3OC)ncc21 (stereo unspecified)
→ x, -0.8%, x, 2%
> CCOC(=O)C1=CC[C@H]2c3c(c4ccccc4n3C)C(=O)C1N2Cc1ccccc1
→ x, -0.9%, x, -9%
> O=C(c1ccc(Cl)s1)N1CCN(c2ncccn2)CC1
→ 0, 2.8%, 4%, 1%
> CC(C)(C)OC(=O)NCCCCCc1cn(CC(=O)NCCCCCCCCCCC(=O)N2CCN(C(=O)OC(C)(C)C)CC2)nn1
→ x, -2.0%, x, -12%
> O=C(Nc1sc2c(c1C(=O)c1ccc(Cl)cc1)CCCC2)c1cccnc1
→ -13, 4.6%, -7%, 6%
> CCc1nnc(NC(=O)CN2C(=O)NC3(CCCC3)C2=O)s1
→ x, u, x, -4%
> CN(C)CCCN(C(=O)C1COc2ccccc2O1)c1nc2cc3c(cc2s1)OCO3 (stereo unspecified)
→ x, 2.3%, -5%, -3%
> Cc1ccc(C2=NN(CCC(=O)NCCCN3CCOCC3)C(=O)CC2)cc1
→ x, 0.8%, -1%, 5%
> O=C(N/N=C\c1ccc(F)cc1)c1ccc(Cn2cc(Br)c([N+](=O)[O-])n2)o1
→ 7, -2.2%, -2%, 12%
> CC(=Nc1ccccc1)C1=C(O)C(Cc2ccc(O)cc2)NC1=O (stereo unspecified)
→ x, 3.1%, x, 1%
> CCOc1cc(/C=C2\N=C(SC)SC2=O)cc([N+](=O)[O-])c1OC(C)=O
→ -2, -3.8%, -3%, -7%
> CN(CC(=O)Nc1sccc1C#N)S(=O)(=O)c1ccc(F)cc1
→ x, 3.2%, x, -17%
> CNS(=O)(=O)c1cc(OC)ccc1OC
→ 2, -2.9%, -4%, 7%
> COC(=O)C(/C=N/OCc1ccc([N+](=O)[O-])cc1)NC(=O)c1ccccc1 (stereo unspecified)
→ 2, -2.6%, 1%, 13%

The list continues:
Below each SMILES – GLA inh pH 4.5, Rango complex inh, miR-21 reporter, Rango dissoc inh
> Cc1occc1C(=O)NNC(=S)Nc1ccccc1C(F)(F)F
→ 6, 1.2%, -74%, -5%
> N#C/C(=C\c1ccc2c(c1)OCO2)C(=O)NCc1ccco1
→ 2, 1.3%, 0%, -5%
> O=C(NCc1ccccc1)C1CCN(S(=O)(=O)N2CCOCC2)CC1
→ 4, u, -3%, 11%
> COc1ccc(C2C3=C(CC(C)(C)CC3=O)Nc3c2c(=O)[nH]c(=O)n3Cc2ccccc2)cc1 (stereo unspecified)
→ 4, u, -7%, u
> CC(C)CNS(=O)(=O)c1ccc(CCC(=O)N2CCN(c3ccc(F)cc3)CC2)cc1
→ 1, 4.2%, 21%, -9%
> CC[C@]12c3[nH]c4cc(CCC(=O)N(C)C)ccc4c3CCN1C(=O)[C@@H](CC(=O)NCC13CC4CC(CC(C4)C1)C3)C[C@@H]2C(=O)N1CCN(C(=O)C2CC2)CC1
→ x, 0.8%, x, 11%
> c1ccc(C[C@H]2CNCCN2CC2(c3ccccc3)CC2)cc1
→ x, -0.2%, x, -8%
> COC1C=COC2(C)Oc3c(C)c(O)c4c(O)c(c(CN5CCN(C)CC5)c(O)c4c3C2=O)NC(=O)C(C)=CC=CC(C)C(O)C(C)C(O)C(C)C(OC(C)=O)C1C (stereo unspecified)
→ x, 3.4%, x, -14%
> COc1cccc(-c2ccc(C#N)c(SCC(=O)NCCc3ccccc3)n2)c1
→ 1, 3.1%, -12%, -15%
> Cc1occc(=O)c1OC(=O)Nc1ccc(Cl)c(Cl)c1
→ -7, -0.3%, u, 7%

Compound activity: PubChem, National Center for Advancing Translational Sciences (NCATS)
